Screening data from PubChem.
PrP 5UTR inh: suppresses PrP 5' UTR mRNA reporter expression. actives 0.35% (n = 340,000). AID 488862. inhibition, % (no concentration beside the values). cell-based PrP 5' UTR mRNA reporter, plate reader;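 active means every replicate at 50% or more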;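 further: 0 = median of the neutral control wells; tested in H4 reporter cells; numbers are from one replicate; inactives centre near -14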
Sa RN4220 lethal: S. aureus RN4220 growth inhibition | inhibition, % (no concentration beside the values) | AID 1259311 | actives 0.33% (n = 330,000) | OD600, 16 h;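 active means z-score of -3 or lower and OD600 up to 0.18 on both plates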;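 further: plate controls were untreated cells for no effect and reference antibiotic for full effect; stock transfer was 100 nL into about 80 µL; one replicate is shown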
BJeLR lethal: BJeLR cell viability loss; BJeLR (HRASV12) viability, CellTiter-Glo ATP luminescence, 48 h; reference of the scale not given here; actives 0.17% (n = 300,000); inhibition, % (concentration not given with the values);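 active means replicate mean above 50%; inconclusive means above 50% but judged a plate artefact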;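 further: 50 nL library stock added to about 25 µL; numbers are from one replicate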
Sa ugtP lethal: compounds lethal to S. aureus RN4220 ugtP deletion mutant; OD600 growth, 16 h; some inactives read as strong as hits; growth inhibition, % (test concentration not listed); actives 0.54% (n = 330,000);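 active means z-score under -3 and OD600 up to 0.15 on both plates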;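 further: plate controls were untreated wells for no effect and antibiotic for full effect; wells of about 80 µL received 100 nL stock; the first replicate is given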
Mtb hypoxia inh: inhibitors of hypoxia-regulated fluorescent reporter in Mycobacterium tuberculosis. AID 1159583. fluorescence inhibition, % (test concentration not listed). actives 0.1% (n = 300,000). M. tuberculosis hypoxia-regulated fluorescent reporter, fluorescence;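 active means 35 to 45% if threefold the growth effect, above 45% if 1.5-fold the growth effect; inactive means the rest, general growth blockers included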;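 further: wells of about 50 µL received 100 nL stock; 0% = vehicle wells and 100% = reference inhibitor wells; whole bacteria with a GFP reporter of the hypoxia response; strong numbers were not always called active; many hits fall short of the cut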
Autofluor counter: counter-screen for toxin protease inhibitors: compound fluorescence | compound autofluorescence counterscreen, microsphere flow cytometry; hits give high values | fluorescence intensity (test concentration not listed) | AID 624483 | actives 3.1% (n = 360,000);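 active means at least 3 SD above the mean of all compounds, about 16000 in these data; inconclusive means too few beads counted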;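 further: 100 nL of 1 mM stock went into each well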
Mtb hypoxia inh growth: further read-out of Mtb hypoxia inh, marked with its call; growth inhibition, %; measured here: M. tuberculosis growth (absorbance);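 0% = vehicle and 100% = reference antibiotic; read after six days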
* hit, by the source's call; ? = inconclusive; / = no result given.

SMILES	PrP 5UTR inh	Sa RN4220 lethal	BJeLR lethal	Sa ugtP lethal	Mtb hypoxia inh	Mtb hypoxia inh growth	Autofluor counter
COc1cc(NC(=O)C(Cc2ccccc2)n2cccc2)cc(OC)c1 (stereo not drawn)	-17	-4.0	3	7	11	7	4334
O=C(CSc1ccccc1F)OCC(=O)N1CCN(C(=O)c2ccco2)CC1	-19	2.3	11	4	5	0	5132
CCCCN(CCCC)C(=S)NC(=O)C(C)(C)C	-13	1.1	3	0	3	9	2102
Cc1onc(-c2ccccc2Cl)c1C(=O)NN=C(N)COc1ccc(Cl)cc1	/	-2.6	/	-5	7	-5	/
CC(=O)c1c(C)[nH]c(C(=O)NCCc2ccccc2)c1C	-110	2.9	-2	-10	/	/	7519
COCc1cc(=O)[nH]c(N2CCN(Cc3ccc4c(c3)OCO4)CC2)n1	-12	3.3	-10	11	-9	7	3342
O=C(NNC(=S)NC(=O)c1ccc(F)cc1)c1cccnc1	-17	21	-5	3	-12	-1	3524
CC(C)C(=O)Nc1ccc(Cc2ccc(NC(=O)C(C)C)c(O)c2)cc1O	-7	-2.3	-3	4	1	-10	16658*
CCCCOc1ccc(/C=N/NC(=S)Nc2cc(C)ccc2C)cc1	-8	/	-4	/	/	/	?
CCOC(=O)/C(C#N)=C/C1=C(N2CCOCC2)CC(C)(C)OC1	2	4.2	5	2	10	2	3587
CCOC(=O)C1=C(C)N=C(/N=C/N(C)C)SC1c1ccccc1 (stereo not drawn)	-35	/	0	/	/	/	4994
COc1ccccc1CN1CCCC(C(=O)c2ccccc2OC)C1 (stereo not drawn)	-3	3.6	4	8	1	12	4077

Entries of single compounds as entered above. Screens in order: PrP 5UTR inh, Sa RN4220 lethal, BJeLR lethal, Sa ugtP lethal, Mtb hypoxia inh, Mtb hypoxia inh growth, Autofluor counter
`Cc1onc(-c2ccccc2Cl)c1C(=O)NN=C(N)COc1ccc(Cl)cc1` in the list: /, -2.6, /, -5, 7, -5, /
`COCc1cc(=O)[nH]c(N2CCN(Cc3ccc4c(c3)OCO4)CC2)n1` in the list: -12, 3.3, -10, 11, -9, 7, 3342
`CCCCN(CCCC)C(=S)NC(=O)C(C)(C)C` in the list: -13, 1.1, 3, 0, 3, 9, 2102

(cont.)
SMILES	PrP 5UTR inh	Sa RN4220 lethal	BJeLR lethal	Sa ugtP lethal	Mtb hypoxia inh	Mtb hypoxia inh growth	Autofluor counter
COc1ccc(Nc2cc(C)nc3nc(C)nn23)c(OC)c1	-13	2.7	-9	-12	/	/	4399
COc1ccc(CNC2=CC(=O)CC(C)(C)C2)cc1	-15	3.7	-6	4	7	2	24712*
COc1cc(/C=C/c2ccccc2)cc(OC)c1	-64	14	/	5	12	5	3366
CC(C)c1ccc(NC(=O)COC(=O)[C@@H]2CCCN2C(=O)c2cccs2)cc1	-25	5.4	/	0	15	10	3615
CCN1C(=O)[C@H]2[C@@H](c3ccc(C)cc3)N3C(=O)N(c4ccc(C(F)(F)F)cc4)C(=O)[C@@]3(CC)[C@H]2C1=O	-4	/	3	/	/	/	3342
O=C(c1ccc(N2CCCCC2)c([N+](=O)[O-])c1)N(Cc1ccccc1)c1ccccn1	-18	-1.7	3	11	6	3	8739
O=C(c1cc2ccccc2[nH]1)N(Cc1cccnc1)CC1CCCN(C2CCCCC2)C1 (stereo not drawn)	0	3.5	5	1	-2	6	9172
Cn1c(O)c(N=Nc2ccc(S(=O)(=O)N3CCOCC3)cc2)c(=O)n(C)c1=O	-1	3.9	-20	-8	4	6	2360
CC(C)c1ccc(NC(=O)C2CCCN(S(=O)(=O)c3ccc4c(c3)C(C)(C)C(=O)N4C)C2)cc1 (stereo not drawn)	-3	2.8	11	7	9	2	4401
CCOC(=O)CC(SP1(=S)OCC2(CCCCC2)CO1)C(=O)OCC (stereo not drawn)	-34	2.4	/	8	5	8	3851
COc1ccc(Cl)cc1NC(=O)C(C)OC(=O)C1=NNC(=O)CC1 (stereo not drawn)	5	4.5	/	1	-6	-1	?
CCC1=C(OC(=O)N(CC)CC)N2C(=O)OC(=NCCc3c[nH]c4ccccc34)[C@]2(Cc2ccccc2)[C@H]2C1=CC[C@H]1C(=O)N(C)C(=O)[C@H]12	-20	/	-4	/	/	/	4167
O=C(O)c1nn(CCOc2cccc(Br)c2)c(=O)c2ccccc12	-13	12	-10	-13	12	-3	5977
CCC1CN(C(=O)N2CCC(C(=O)NCCc3ccc(OC)c(OC)c3)CC2)c2ccccc2O1 (stereo not drawn)	5	0.8	-4	-1	-5	8	5680
CCC1C(=O)Nc2ccccc2N1C(=O)COc1ccccc1 (stereo not drawn)	-2	-2.1	2	2	-5	0	5115
CCC(C)(C)c1nnc(NC(=O)CCC2CCCCC2)s1	/	7.2	7	21	1	2	6199
CCCCCCCC1(C)NC(=O)N(c2ccccc2)N1 (stereo not drawn)	-12	-1.7	-7	10	10	9	10597
Cn1c(SCc2ccccn2)nc2c1c(=O)[nH]c(=O)n2C	-11	0.3	-2	6	-5	4	3778
C/C(=N\NC(=S)Nc1ccccc1C)c1cc2ccccc2o1	-24	/	10	/	/	/	4742
COc1cc(C(=O)NNC(=O)CNC(=O)C2CCCCC2)ccc1OC(C)C	-10	3.0	/	6	9	2	3126
COc1ccc(S(=O)(=O)N2CCN(C(C)C(=O)Nc3ccc(C(C)C)cc3)CC2)cc1 (stereo not drawn)	-27	0.8	/	-3	-11	2	3834
COc1ccc(NC(=O)C(NC(=O)c2ccc(C)cc2)c2ccccc2)cc1 (stereo not drawn)	-30	3.9	1	11	-4	1	4176
O=C(NCc1ccccn1)C1CCN(S(=O)(=O)c2ccc(Br)cc2)CC1	-3	2.4	13	6	6	-6	4478
CSc1ccc(NC(=O)N2CC(C)OC(C)C2)cc1 (stereo not drawn)	-10	6.0	2	-3	10	2	3200
Cc1ccc(C)c(Cc2c(C)nc(C)[nH]c2=O)c1	-18	6.2	3	5	8	4	2477
O=C(NCC1CCCO1)C(Cc1ccccc1)N1C(=O)C2C3C=CC(C4CC34)C2C1=O (stereo not drawn)	-24	3.5	-8	1	3	9	4609
Cc1nn(Cc2c(F)c(F)c(F)c(F)c2F)c(C)c1NC(=O)c1cccc(COc2ccc(Cl)cc2)c1	-62	1.0	5	-9	4	-3	11251
Cc1ccc(S(=O)(=O)c2cc3c(=O)n4cccc(C)c4nc3n(CCc3ccccc3)c2=N)cc1C	-20	2.5	/	4	-3	1	4868
C=CCn1c(COc2ccc(F)cc2)nnc1SCC(=O)NC1CC1	-11	3.1	6	1	8	-10	5417
CC(=O)Oc1cccc(/C=c2\sc3nc(-c4ccco4)nn3c2=O)c1	1	/	8	/	/	/	2306
Cc1c(C(=O)Nc2ccc(N3CCOCC3)cc2)cccc1[N+](=O)[O-]	-10	-1.4	-8	6	-13	-1	4346
NNC(=O)Cn1nc(Cc2ccccc2)n(N)c1=O	-9	7.3	/	3	10	6	5334
C/C(=N\NC(=O)c1ccc(OC2CCCC2)cc1)c1ccc(O)cc1	-5	/	-3	/	/	/	5807
COC(=O)c1ccc(C(C(=O)NCc2ccccc2)N(Cc2ccco2)C(=O)c2cnccn2)cc1 (stereo not drawn)	-44	-0.4	1	2	0	11	10094
COc1cccc(N2CCN(C(=O)c3ccc4nc(N5CCCCC5)sc4c3)CC2)c1	-54	-1.6	0	-5	/	/	4276
Cc1nn(C)cc1/C=C1\SC(=S)NC1=O	-20	11	-1	-3	4	7	9573

Looked up above.
`CCN1C(=O)[C@H]2[C@@H](c3ccc(C)cc3)N3C(=O)N(c4ccc(C(F)(F)F)cc4)C(=O)[C@@]3(CC)[C@H]2C1=O` in Autofluor counter is listed with 3342
`CC(=O)c1c(C)[nH]c(C(=O)NCCc2ccccc2)c1C` in PrP 5UTR inh is listed with -110
`C=CCn1c(COc2ccc(F)cc2)nnc1SCC(=O)NC1CC1` in Mtb hypoxia inh is listed with 8

The list continues:
SMILES	PrP 5UTR inh	Sa RN4220 lethal	BJeLR lethal	Sa ugtP lethal	Mtb hypoxia inh	Mtb hypoxia inh growth	Autofluor counter
CCOC(=O)c1ccc(NC(=O)c2nn(CC)cc2Br)cc1	-15	8.4	4	17	-3	6	5815
CC1(C)CC(=O)c2cnc(NC(=O)CCc3ccccc3)nc2C1	-5	-3.7	-7	-9	/	/	3561
COC(=O)c1cc(-c2ccc(S(=O)(=O)N3CCCC(C)C3)cc2)c(C(F)(F)F)s1 (stereo not drawn)	-26	4.1	1	-5	16	10	4035
O=C(NNC(=S)Nc1ccccc1)C1CC1	0	2.1	3	4	6	17	5187
CCC(NC(=O)c1ccccc1NC(=O)c1ccc(OC)cc1)C(=O)N1CCCC1 (stereo not drawn)	-31	2.4	11	3	6	-4	2179
COc1ccccc1C(c1c(O)nc(SC)[nH]c1=O)c1c(O)nc(SC)[nH]c1=O	-24	1.3	-8	3	3	-1	3031
CSc1ncccc1C(=O)OCC(=O)NCCc1ccccc1	-12	4.5	/	4	15	13	3648
COc1ccc(C(CCc2ccc(C)o2)NC(=O)Nc2ccc(OC)cc2OC)cc1 (stereo not drawn)	-11	1.8	0	12	1	1	11756
O=C(NC(=S)N1CCCCC1)c1cccnc1	-11	-0.8	0	-7	3	3	9087
O=S(=O)(NCc1ccccc1)c1cccs1	-7	-1.3	9	4	7	9	2524
COc1ccc(/C=N/NC(=O)c2ccc(Br)cc2)c(OC)c1	-15	/	2	/	/	/	4815
COc1ccc(OC(C)C(=O)Nc2ccccc2C(F)(F)F)cc1 (stereo not drawn)	-28	0.6	-1	1	3	2	10341
CCCc1nc(SCc2cccnc2)c2c(=O)n(C)c(=O)n(C)c2n1	-23	-11	-3	-5	2	11	4538
CC1CN(CCOc2ccc(Cl)c(Cl)c2)CC(C)O1 (stereo not drawn)	-32	1.8	3	3	7	4	3482
COc1ccc2nc(NC(=O)CSc3nnnn3C3CCCCC3)sc2c1	-27	8.9	-5	6	7	13	13018
CC(C)(Oc1ccc(Cl)cc1)C(=O)Nc1ccncc1	1	4.2	6	-1	9	5	3005
CCCCn1nc(C(=O)N(CC(C)C)c2c(N)n(CCCC)c(=O)[nH]c2=O)c2ccccc2c1=O	-23	1.3	/	8	4	8	?
COC(=O)Cc1c(O)ccn(CCc2ccc(S(N)(=O)=O)cc2)c1=O	-8	3.9	-2	4	-4	-6	2999
Cc1oc2c(c1C(=O)N1CCC(C)CC1)C(=O)c1ccccc1C2=O	/	28	42	25	11	7	/
O=C1CC2(CCN(C(=O)COc3ccccc3F)CC2)Oc2ccccc21	-17	-4.2	-10	5	15	3	6284
CC(=O)Nc1ccc(S(=O)(=O)NCCS(=O)(=O)N2CCN(c3ccccc3F)CC2)cc1	-12	2.5	8	1	17	3	5738
COc1cccc(Nc2ccccc2C(=O)O)c1	-19	14	-4	11	13	11	3037
COCCNc1nc(N2CCCCC2)c2cnn(C)c2n1	-15	2.1	4	9	1	-1	6411
CN(/N=C/c1cccc(Br)c1)C1=NS(=O)(=O)c2ccccc21	-7	/	6	/	/	/	3809
N#Cc1c(-c2ccccc2)cc(-c2ccccc2)nc1Br	-23	16	-10	-16	10	1	2407
CCOc1ccc(CC(=NCCO)C2=C(O)CC(C)(C)CC2=O)cc1OCC	-12	0.2	0	-4	15	2	2692
Cc1cc(N(CCCl)CCCl)ccc1/C=N/NC(=O)c1ccco1	-18	/	-7	/	/	/	3112
CCC(C)(C)C1CCc2[nH]nc(C(=O)NCCNC(=O)OC(C)(C)C)c2C1 (stereo not drawn)	-12	6.7	/	6	8	7	2899
CCOc1ncccc1C(=O)NCc1ccc(OC)c(OC)c1	-6	1.3	3	4	5	6	2081
CC(C)Cc1cc(C(=O)Nc2cccc(O)c2)no1	16	2.0	-7	2	0	-4	3609
Cc1ccccc1N(CC(=O)NCCSCc1ccco1)S(C)(=O)=O	-2	5.2	8	4	2	-2	8175
Cn1c(SCC(=O)Nc2ccccc2)nnc1-c1ccc(NC(=O)CCc2ccccc2)cc1	-22	2.3	3	3	4	1	5291
CC(C)(C)c1ccc(C(=O)N2CCN(C(=O)C3CCCCC3)CC2)cc1	-4	3.0	-9	-2	-1	-2	5358
NC(=O)CSc1cn(Cc2ccccc2)c2ccccc12	-21	-0.3	4	-1	3	12	4588
O=C(COc1ccc(Cl)cc1)NCc1nnc2c3ccccc3c(-c3ccccc3)nn12	-21	-9.6	-7	-16	-2	6	2608
O=C(Nc1ccccc1)c1c(F)c(F)c(F)c(F)c1F	-17	1.2	-6	-1	16	6	8248
CC(C)CC(NC(=O)C1CCC(C)CC1)C(=O)Nc1ccc2c(c1)OCCO2 (stereo not drawn)	-10	0.7	-8	10	/	/	4225
